Ecoli growth: E. coli growth inhibition, primary screen, OD600 | Escherichia coli growth, 23 h; hits give low values | OD600 absorbance (no concentration beside the values) | 330,000 compounds, 0.21% hits | AID 1053175, 2014;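 active means OD600 absorbance below the run mean of sample wells minus 3.6 SD, in any replicate, cut at about 0.56 in these data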;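 further: stock transfer was 300 nL into about 60 µL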
UCH37 inh: inhibitors of human UCH37 deubiquitinase, primary screen, biochemical, Ub-AMC cleavage, fluorescence. Ubiquitin carboxyl-terminal hydrolase isozyme L5 (Homo sapiens), Q9Y5K5. purified proteasome/UCH37. inhibition, % (no concentration beside the values). 330,000 compounds, 0.33% hits;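 active means mean of two replicates above 20%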;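 further: 0% = compound-free wells with enzyme and 100% = wells lacking proteasome; stock transfer was 100 nL into about 20 µL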
Target sequence (Q9Y5K5 whole entry, looked up): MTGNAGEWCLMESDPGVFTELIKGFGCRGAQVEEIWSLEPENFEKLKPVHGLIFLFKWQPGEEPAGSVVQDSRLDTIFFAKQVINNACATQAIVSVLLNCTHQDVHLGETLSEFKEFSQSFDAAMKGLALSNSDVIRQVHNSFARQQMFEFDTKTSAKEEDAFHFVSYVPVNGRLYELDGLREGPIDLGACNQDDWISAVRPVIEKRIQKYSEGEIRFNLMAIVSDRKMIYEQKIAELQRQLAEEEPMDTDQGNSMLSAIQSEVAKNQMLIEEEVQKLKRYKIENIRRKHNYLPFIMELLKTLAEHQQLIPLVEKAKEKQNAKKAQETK
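Material: Human UCH37 enzyme supplied as purified proteasome complex | Schedule: 30 min compound-proteasome preincubation then 25 min substrate reaction, room temperature | Detection: AMC fluorescence from Ub-AMC cleavage, excitation 355 nm, emission 460 nm | Benchmarks: Wells without proteasome as full block, compound-free enzyme plus substrate as uninhibited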
HNF4A DNA FP: change in binding of human HNF4A to DNA, primary screen, biochemical, fluorescence polarization, FITC-DNA | Hepatocyte nuclear factor 4-alpha (Homo sapiens), P41235 | 1 h | activity change, % at 10 µM | 360,000 compounds, 0.3% hits; in the data active means activity change above about 30%, passing the limit was not always enough;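 further: controls were the assay level and a saturating level of protein; the project sought stronger binding though the title names inhibitors; some compounds called inactive have numbers as strong as hits; positive values seem to mean higher polarization but the record does not say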
FGF22 binding: binders of human FGF22 protein, primary screen, FGF22 synaptogenesis inhibitor project, biophysical, thermal shift, single point; recombinant FGF22 thermal shift, SYPRO orange fluorescence; percent of sucrose octasulfate shift, DMSO zero; calls only at 9.99 µM; 340,000 compounds, 1.5% hits; AID 651658, 2012;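 active means melting point raised past a set limit in the mean and every replicate; inconclusive means no clear call; three in four hits are not shown here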
Target sequence (Q9HCT0 whole entry, looked up): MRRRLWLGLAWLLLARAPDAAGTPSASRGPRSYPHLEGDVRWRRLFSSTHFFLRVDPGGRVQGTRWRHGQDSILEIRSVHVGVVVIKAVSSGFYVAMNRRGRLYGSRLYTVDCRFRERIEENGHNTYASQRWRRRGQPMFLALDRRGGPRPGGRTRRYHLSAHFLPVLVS
AF4-AF9 inh: inhibitors of AF4 peptide binding to AF9, primary screen, biochemical, AlphaScreen, biotin-AF4 peptide, FLAG-AF9, single point | AID 651704, 2012 | 350,000 compounds, 0.47% hits | inhibition, % at 10 µM | Protein AF-9 (Homo sapiens), P42568;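 active means every replicate reaching a set inhibition limit, whatever the replicate mean, cut at about 25% in these data; inconclusive means mean inhibition reaches that limit but some replicates miss it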;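 further: 0% = plate neutral control median and 100% = total signal loss; the record names both 10 and 1 µM as test concentration; the first replicate is given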
Target sequence (P42568 whole entry, looked up): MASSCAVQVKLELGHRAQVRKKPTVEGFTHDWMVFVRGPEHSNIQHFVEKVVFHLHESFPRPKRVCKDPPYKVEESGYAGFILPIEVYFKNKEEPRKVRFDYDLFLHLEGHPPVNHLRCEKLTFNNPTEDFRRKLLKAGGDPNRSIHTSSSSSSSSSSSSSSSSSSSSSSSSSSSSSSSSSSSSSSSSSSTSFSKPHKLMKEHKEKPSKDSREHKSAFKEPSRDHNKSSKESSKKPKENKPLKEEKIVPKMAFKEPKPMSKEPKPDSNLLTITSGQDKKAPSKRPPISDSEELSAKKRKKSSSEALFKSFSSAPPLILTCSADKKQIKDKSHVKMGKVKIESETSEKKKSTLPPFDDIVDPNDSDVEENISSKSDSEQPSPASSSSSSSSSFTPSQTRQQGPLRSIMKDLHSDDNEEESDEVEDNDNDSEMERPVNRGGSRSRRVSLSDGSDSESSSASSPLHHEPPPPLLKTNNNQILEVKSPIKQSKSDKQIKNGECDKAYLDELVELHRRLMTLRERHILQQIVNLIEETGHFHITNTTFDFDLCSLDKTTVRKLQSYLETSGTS
Vif A3G: inhibitors of Vif binding to APOBEC3G peptide, primary screen, biochemical, TR-FRET, GST-Vif 1-94, biotin-A3G peptide, dose response retest (AID 1117319); 260,000 compounds, 0.57% hits; Virion infectivity factor (Human immunodeficiency virus type 1 group M subtype B (isolate …; inhibition, %, or IC50 in µM where a hit was titrated; TR-FRET GST-Vif / biotin-A3G peptide binding; higher % means a stronger effect; test concentration not given here; strong numbers were not always called active;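 active means above the screen mean plus three standard deviations and confirmed in dose response; inconclusive means results disagree or hit not tested in dose response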;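 further: Vif residues 1-94 fused to GST binding biotinylated APOBEC3G peptide 110-148; 0% = full assay without inhibitor and 100% = GST in place of GST-Vif; retest series ran down from 100 µM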
RanGTP-Impb inh: inhibitors of RanGTP-importin-beta interaction, primary screen, biochemical, FRET, CFP-Ran, YFP-importin-beta, homogeneous; inhibition, % (test concentration not listed); cell-free CFP-Ran/YFP-importin-beta FRET ratio; 300,000 compounds, 1.1% hits; Ran GTPase (GTP-bound) - importin-beta complex; AID 2216, 2009;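 active means most replicates above 15%; inconclusive means exactly half above 15%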;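 further: 0% = DMSO wells and 100% = Ran loaded with GDP instead of GTP; wells of about 40 µL received 100 nL stock; the first replicate is given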
Numbers without * were called inactive; i = inactive; ? = inconclusive; nt = not tested or not shown; & = joins results of further samples. These rows are one share of the data; count on the stated rates, not on these rows.

Values run as follows: Ecoli growth	UCH37 inh	HNF4A DNA FP	FGF22 binding	AF4-AF9 inh	Vif A3G	RanGTP-Impb inh
> O=C(COC(=O)/C=C/c1ccc([N+](=O)[O-])cc1)NC(c1ccccc1)c1ccccc1
→ 0.71	4.7	6.0	i	1.4	nt	-2.7
> COc1cccc(NC(=O)C(Sc2nnc(-c3ccncc3)n2-c2ccc(Cl)cc2)c2ccccc2)c1 (stereo unspecified)
→ 0.71	0.9	1.7	i	5.1	nt	?
> CC(C)(C)NC(=O)C(c1cc2ccccc2o1)n1c(=O)c(-c2ccco2)nc2ccccc21 (stereo unspecified)
→ nt	nt	22	i	6.3	nt	nt
> Clc1ccc(CNc2nc(N3CCOCC3)nc(N3CCOCC3)n2)cc1
→ 0.72	5.9	4.9	nt	nt	9%	3.6
> CC(C)NS(=O)(=O)c1ccc(Oc2ncc(C(F)(F)F)cc2Cl)cc1
→ 0.68	3.2	-1.1	nt	nt	?	1.0
> Cc1onc(-c2ccccc2Cl)c1C(=O)NNC(=O)c1cccc(F)c1
→ 0.71	6.2	3.3	i	-4.5	nt	-3.7
> CCn1c(-c2cc(OC)c(OC)c(OC)c2)n[nH]c1=S
→ 0.69	0.2	0.0	nt	nt	?	0.1
> NNC(=S)Nc1c(Br)cc(F)cc1Br
→ 0.64	2.5	-1.1	i	nt	7%	4.7
> O=C(OCCN1C(=O)c2ccccc2C1=O)c1cnccn1
→ 0.7	0.3	3.6	nt	nt	-1%	-2.9
> COc1ccc(OC)c(C(c2nnnn2CC2CCCO2)N2CCN(C3CCCC3)CC2)c1 (stereo unspecified)
→ 0.7	1.8	2.4	nt	nt	-8%&-12%	?
> CCCOc1ccc(-c2nc(C#N)c(N3CCC(C(N)=O)CC3)o2)cc1
→ 0.77	-115	-0.9	nt	nt	20%	?
> O=C(Nc1ccc2c(c1)CCC2)c1cc(S(=O)(=O)Nc2ccc(F)cc2)c(Cl)cc1Cl
→ 0.64	3.2	-0.5	i	1.3	-12%	?
> O=C(Nc1ccccc1)c1cccc(Cn2cc(C(F)(F)F)ccc2=O)c1
→ 0.66	1.1	5.1	i	-3.9	nt	0.4
> CNC(=S)N/N=C(\C)c1ccc(C(C)(C)C)cc1
→ nt	nt	-3.1	nt	nt	?	-0.3
> CCCCCCCCCn1c2c(c(=N)c3c1CCC3)CCCC2
→ 0.43*	9.4	2.3	nt	nt	-8%	3.4

The listing continues:
Values run as follows: Ecoli growth	UCH37 inh	HNF4A DNA FP	FGF22 binding	AF4-AF9 inh	Vif A3G	RanGTP-Impb inh
> COc1cc(S(=O)(=O)N2CCn3cccc3C2C)ccc1NC(C)=O (stereo unspecified)
→ 0.71	2.1	0.1	i	-5.1	nt	nt
> COc1cccc(C(=O)N2C(C(C)C)COc3cc(Br)ccc3S2(=O)=O)c1 (stereo unspecified)
→ nt	nt	0.2	i	-1.5	-3%	nt
> Nc1ncnc2c1ncn2[C@@H]1O[C@H](CNC(=O)OC[C@@H](N)Cc2ccccc2)[C@@H](O)[C@H]1O
→ nt	nt	-1.4	i	-0.1	nt	nt
> O=C(CSc1nnc(CNC(=O)c2ccco2)o1)Nc1ccccc1F
→ 0.66	5.2	3.4	i	0.8	nt	0.4
> Cc1nn(Cc2cccc(C(=O)NN)c2)c(C)c1Cl
→ 0.69	0.3	0.9	i	-1.9	nt	-0.5
> O=S(=O)(N/N=C\c1cn(-c2ccccc2)nc1-c1ccccc1)c1ccccc1
→ nt	nt	-0.1	nt	nt	1%	3.0
> CCOc1ccc(OCC(=O)Nc2ccc(N3CCCCC3)cc2)cc1
→ 0.72	2.4	0.6	i	-1.5	nt	2.6
> CCN1CCN(CCC(=O)Nc2ccc(Br)cc2)CC1
→ 0.67	-2.6	-1.2	i	1.1	-5%	0.2
> Cc1ccc(C(=O)NCC(=O)NCc2cc(=O)n(C)c(=O)n2C)cc1
→ 0.6	1.0	-2.4	i	1.7	nt	1.9
> Cn1c(Sc2ccccc2Cl)c(C=O)c2ccccc21
→ 0.79	-2.0	4.7	nt	nt	-7%	8.1
> CCc1ccc(C(=O)/C=C/c2ccc([N+](=O)[O-])o2)cc1
→ 0.65	1.0	3.0	nt	nt	32%	-3.9
> COC(=O)CC(=O)O[C@H]1C=C[C@@H](NC(=O)OC(C)(C)C)C1
→ 0.71	-0.1	2.4	i	-2.5	-3%	nt
> C/C(=N/OC(=O)c1ccc(C)cc1)c1ccc(N2C(=O)C3CCCCC3C2=O)cc1 (stereo unspecified)
→ nt	nt	-0.8	nt	nt	-2%	?
> NS(=O)(=O)c1ccc(NC(=O)c2ccccc2C(=O)N2CCCCC2)cc1
→ 0.66	3.9	-1.6	nt	nt	71%	2.6
> Cc1noc(C)c1-c1ccc(C(=O)Nc2cccc(C(F)(F)F)c2)c2occc12
→ nt	nt	-1.7	i	-5.4	nt	nt

(list continues)
Values run as follows: Ecoli growth	UCH37 inh	HNF4A DNA FP	FGF22 binding	AF4-AF9 inh	Vif A3G	RanGTP-Impb inh
> CSc1ccc(/C=N/NC(=O)c2cccc(Cl)c2)cc1
→ nt	nt	0.5	i	-4.6	6%	0.4
> Cc1noc(C)c1S(=O)(=O)N1CCC(C(=O)N2CCN(C3CCCC3)CC2)CC1
→ 0.72	6.2	nt	nt	nt	1%	-2.9
> O=C(CCNC(=O)c1ccc(Br)cc1)NCCCN1CCOCC1
→ 0.64	0.6	0.5	i	-3.6	5%	nt
> Cc1ccc(NC(=O)CNC(=O)COc2ccccc2)nc1
→ 0.63	4.9	0.0	i	-2.1	41%	6.5
> Cc1ccc(CSc2nnc(-c3ccc4c(c3)OCO4)o2)cc1
→ 0.77	1.0	1.0	nt	nt	-6%	-0.7
> N#Cc1nc(-c2cccs2)oc1NCc1ccc(Cl)cc1
→ 0.75	-158	0.8	nt	nt	-2%	-5.0
> Cc1cc(-c2csc(NC(=O)c3ccc(=O)[nH]c3)n2)c(C)n1Cc1ccccc1
→ 0.61	-7.1	9.1	i	-11	12%	-2.4
> COc1ccc(Cc2nnc(SCC(=O)Nc3nc(C)cs3)o2)cc1
→ 0.64	6.4	-1.6	nt	nt	6%	1.3
> Cc1ccc(-c2nc3ccc(C)cn3c2Cc2cccc(Cl)c2)cc1
→ nt	nt	1.7	i	1.8	nt	nt
> COc1cccc(CNCc2ccc(C(=O)O)cc2)c1OC
→ 0.67	3.2	-3.6	i	1.0	-2%	-1.7
> COc1ccccc1NC(=O)CSc1nc(C)c2c(c1C#N)CCCC2
→ 0.7	2.6	2.5	nt	nt	1%	0.4
> Cn1ccc(C(=O)OCC(=O)c2ccccc2)n1
→ 0.69	2.3	0.1	nt	nt	-7%	1.3
> CC(NC(=O)C1CCCC1)c1ccc2c(c1)OCCO2 (stereo unspecified)
→ 0.76	-0.6	1.6	nt	nt	2%	2.0
> O=C1CCCCC1CCc1ccncc1 (stereo unspecified)
→ 0.68	2.6	1.0	i	-2.2	2%	nt
> OCC1(CCOc2ccccc2)CCN(C2Cc3ccccc3C2)CC1
→ 0.68	1.1	-5.8	i	0.6	16%	nt

More results
Values run as follows: Ecoli growth	UCH37 inh	HNF4A DNA FP	FGF22 binding	AF4-AF9 inh	Vif A3G	RanGTP-Impb inh
> CC(=O)C1=NOC2C(=O)N(c3ccc(Cl)cc3)C(=O)C12 (stereo unspecified)
→ 0.67	4.1	1.9	i	-0.9	4%	-2.6
> CC1CC2C3CCC4=CC(=O)C=CC4(C)[C@@]3(Cl)C(O)CC2(C)C1(O)C(=O)CO (stereo partly specified)
→ 0.66	0.4	-0.8	i	2.6	nt	0.4
> O=C(/C=C/c1cccc([N+](=O)[O-])c1)OCC(=O)c1ccccc1
→ 0.66	-1.0	0.2	i	-0.2	0%	3.3
> COc1ccc(S(=O)(=O)c2cnc3ccc(OC)cc3c2N2CCC3(CC2)OCCO3)cc1
→ 0.73	2.0	2.5	i	18	10%	1.7
> COc1ccccc1CNS(=O)(=O)c1ccc2[nH]cc(C(=O)O)c(=O)c2c1
→ 0.72	2.5	-5.0	nt	nt	22%	4.3
> N#C/C(=C\c1cc(Cl)cc(Cl)c1O)C(=O)NC1CCCCC1
→ 0.68	3.9	-4.0	i	1.9	9%	2.1
> S=c1nc(-c2ccccc2Cl)[nH][nH]1
→ 0.7	-0.2	5.0	i	-4.3	0%	-3.3
> Cc1nn(-c2ccccc2)nc1CNC(=O)CC(C)(C)C
→ 0.65	0.7	1.0	i	nt	nt	9.6
> O=C(Nc1ccc(F)c(Cl)c1)c1csc(COCCO)n1
→ nt	nt	-2.3	i	-0.5	nt	nt
> Nn1c(SCC(=O)Nc2ccc(F)cc2F)nnc1C1CCCCC1
→ 0.73	2.9	4.9	nt	nt	0%	-1.6
> O=C(CSc1nc2ccccc2c(=O)n1-c1ccccc1Cl)NC1CCS(=O)(=O)C1 (stereo unspecified)
→ 0.71	1.2	1.5	i	-0.3	nt	nt
> CCCNC(=O)C1CCN(c2ccc(S(=O)(=O)N3CCOCC3)cc2Cl)CC1
→ 0.68	3.4	-0.7	i	-51	13%	-1.7
> CN(C)CCn1c(SCc2ccccc2C#N)nc2c(sc3ccccc32)c1=O
→ 0.68	-99	7.8	i	13	-1%	0.9
> COc1ccc(/C=C/C(=O)OCC(=O)NC2CCCC(C)C2C)c(OC)c1 (stereo unspecified)
→ 0.69	-3.2	2.2	i	-4.7	nt	nt
> O=C1c2ccccc2C(=O)N1CCC(c1ccccc1)c1ccco1 (stereo unspecified)
→ 0.7	1.2	-3.0	nt	nt	2%	0.9

Later entries
Values run as follows: Ecoli growth	UCH37 inh	HNF4A DNA FP	FGF22 binding	AF4-AF9 inh	Vif A3G	RanGTP-Impb inh
> CC(Oc1cccc(NC(=O)c2cccs2)c1)C(=O)c1ccccc1 (stereo unspecified)
→ 0.63	-0.2	1.7	i	-2.4	-2%	1.9
> C=C(CCC(=O)c1ccccc1)C(=O)c1ccccc1
→ 0.62	4.1	-3.1	i	1.7	20%	?
> O=C(CCN1C(=O)c2ccccc2C1=O)N(CCO)Cc1ccccc1
→ 0.68	2.2	1.3	nt	nt	-3%	-1.6
> CCn1c(SCC(=O)N/N=C/C=C/c2ccco2)nc2ccccc21
→ nt	nt	-3.1	nt	nt	?	0.8
> S=C(c1ccc2c(c1)OCO2)N1CCCCCC1
→ 0.7	3.0	-2.6	nt	nt	3%	?
> Cc1cccc(OCCN2CSC(=S)N(C)C2)c1
→ nt	nt	-1.6	nt	nt	6%	5.2
> CCOCc1nnc(NC(=O)c2ccco2)s1
→ 0.72	1.7	0.6	nt	nt	0%	5.8
> Cc1cc(C)cc(NC(=O)N2CCCN(c3c(Cl)cncc3Cl)CC2)c1
→ 0.68	6.9	4.6	i	nt	-7%	0.7
> CCCCOc1ccc(-c2nnn(CC(=O)c3c[nH]c4ccccc34)n2)cc1
→ 0.69	-1.3	10.0	nt	nt	-7%	0.0
